Menin MLL FP FL: qHTS Assay for Inhibitors Targeting the Menin-MLL Interaction in MLL Related Leukemias: Competition With Fluorescein Labeled MLL-derived Peptide | Fluorescence polarization, fluorescein-MLL peptide displacement from menin | 290,000 tested, under 10 active | FP activity change, % at 61.4 µM | AID 1766, 2009; inconclusive = falling polarisation curve, or a change in total fluorescence; inactive = total fluorescence flat and polarisation flat or rising; no compound was filed as active; the % refers to the polarisation; negative = inhibition;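 further: % of control where 0% means no effect; inhibitors lower the polarisation; unlabelled MLL peptide was the positive control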
gsp agonist: qHTS for Agonist of gsp, the Etiologic Mutation Responsible for Fibrous Dysplasia/McCune-Albright Syndrome: qHTS; AID 624287, 2012; 340,000 compounds, 0.13% hits; gsp mutant cells, cAMP HTRF, 30 min; control for the full effect not named in the record; Potency, µM (series often up to 76.9 µM), for inactives: at the highest dose activation (cAMP increase), most hits filed as activators; active = well fitted activation curve with a large enough effect; inconclusive = small, poorly fitted or top-dose-only effect, or another doubt; inactive = no such curve, though single readings can be large or run the other way; cell line not stated here;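 further: phosphodiesterase inhibitor Ro 20-1724 added with compounds to block cAMP breakdown; potency means the concentration at half of the fitted maximal effect; nearly all actives have a fitted effect of over 60% in size; about a fifth of the inactives were tested at one dose only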
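Cells in DMEM/10% FBS with G418 were pretreated with compounds in DMSO plus […] (300 uM stock) for 30 min at 37C. cAMP was measured by HTRF (cAMP-d2 plus anti-cAMP antibody-K) after 30 min at room temperature.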
D2 ag: Beta-Arrestin HTS for Positive Allosteric Modulators of the Human D2 Dopamine Receptor: Agonists | D(2) dopamine receptor (Homo sapiens), P14416 | DiscoveRx PathHunter D2 beta-arrestin, luminescence, 90 min; 100% = 57 uM dopamine signal | activation, % (test concentration not listed) | 360,000 compounds, 0.084% hits | AID 624465, 2012; in the data active = activation above about 40%; inconclusive = about 15% to 40%; inactive = below about 15%; further: compound concentration not given in the record; the text of the record calls up to 30% inactive
Target sequence (P14416 whole entry, looked up): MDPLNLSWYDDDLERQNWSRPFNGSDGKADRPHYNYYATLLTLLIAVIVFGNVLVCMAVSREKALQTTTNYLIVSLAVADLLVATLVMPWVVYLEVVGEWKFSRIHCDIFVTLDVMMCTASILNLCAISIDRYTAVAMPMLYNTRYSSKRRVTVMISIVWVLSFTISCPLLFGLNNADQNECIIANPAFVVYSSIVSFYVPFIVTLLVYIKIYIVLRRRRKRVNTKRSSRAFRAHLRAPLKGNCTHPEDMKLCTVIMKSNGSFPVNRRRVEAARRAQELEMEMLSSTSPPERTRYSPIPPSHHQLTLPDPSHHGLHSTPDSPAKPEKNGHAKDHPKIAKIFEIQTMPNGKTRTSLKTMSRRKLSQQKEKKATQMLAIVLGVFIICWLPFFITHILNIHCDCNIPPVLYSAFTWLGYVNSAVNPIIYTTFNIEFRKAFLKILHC
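Agonist mode: compounds alone added to overnight-plated D2 PathHunter cells for 90 min at 37 C, with 57 uM final dopamine (EC100) defining full response. Beta-arrestin recruitment detected by chemiluminescent reagent, read after 1 h at ambient temperature.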
ClpP mod: qHTS Assay for Activators of ClpP; ATP-dependent Clp protease proteolytic subunit (Bacillus subtilis (strain 168)), P80244; purified B. subtilis ClpP, FRET peptide cleavage, 20 min; Potency, µM (top dose mostly 57.5 µM), without a hit: at the top dose activity change, negative = active; 340,000 compounds, 1.9% hits; active = well fitted falling curve with a large enough effect; inconclusive = small, poorly fitted or top-dose-only effect; inactive = no such curve, though single readings can be large or run the other way; further: potency means the concentration at half of the fitted maximal effect; the source files actives as falling curves though it sought activators and does not explain the sign; nearly all actives have a fitted effect of over 65% in size; many hits overshoot -100%
Target sequence (P80244 whole entry, looked up): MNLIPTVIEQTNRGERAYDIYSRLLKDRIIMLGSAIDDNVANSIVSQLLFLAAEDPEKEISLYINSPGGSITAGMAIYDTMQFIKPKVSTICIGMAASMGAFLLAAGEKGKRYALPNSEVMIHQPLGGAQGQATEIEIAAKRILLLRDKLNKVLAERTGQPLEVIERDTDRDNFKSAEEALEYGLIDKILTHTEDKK
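ClpP 10 microg/mL final, pH 8 Tris/KCl buffer with BSA, glycerol, Tween-20; compound pinned in; FRET-FV substrate; RT 20 min; Ex320/Em430; ΔFRET vs ADEP 5.8 microM, DMSO, no enzyme.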
gsp antag: qHTS for Antagonists of gsp, the Etiologic Mutation Responsible for Fibrous Dysplasia/McCune-Albright Syndrome: qHTS; gsp-mutant cells, cAMP HTRF, 30 min; control for the full effect not named in the record; Potency, µM (titrated, usually from 76.9 µM), for the others: at the top dose activity change, negative = inhibition, most hits filed as inhibitors; 340,000 compounds, 0.4% hits; active = falling curve of any shape with a large fitted effect; inconclusive = falling curve, mostly with a smaller effect; inactive = flat or rising curve; cell line not stated here;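 further: intracellular cAMP measured with PDE inhibitor Ro 20-1724 present during compound exposure; potency means the concentration at half of the fitted maximal effect; on the % scale 0 is the no-effect control and ±100 the full control effect; nearly all actives have a fitted effect of over 65% in size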
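G418-selected cells were plated in DMEM/10% FBS for 16-24 h at 37C, then treated with compounds plus the PDE inhibitor […] (300 uM solution added) for 30 min at 37C. Intracellular cAMP was measured by HTRF after 30 min lysis at room temperature.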
Sfp PPTase inh: qHTS Assay for Inhibitors of Bacillus subtilis Sfp phosphopantetheinyl transferase (PPTase) | Biochemical Sfp PPTase activity, qHTS | AID 1490, 2009 | 4'-phosphopantetheinyl transferase ffp (Bacillus subtilis), Q9F4F7 | Potency, µM, for inactives: max response, negative = inhibition, actives largely listed as inhibitors | 310,000 compounds, 3.5% hits; active means well fitted inhibition curve with a large enough effect; inconclusive means small, poorly fitted or top-dose-only effect, or another doubt; inactive means no such curve, though single readings can be large or run the other way;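 further: the enzyme is Sfp with the accession as filed and its product quenches rhodamine fluorescence; potency means the concentration at half of the fitted maximal effect; 0% = enzyme reaction without inhibitor and -100% = no enzyme wells; top concentration of the series not given in the record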
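Step 1, compound plus 15 nM Sfp-PPTase, 15 min, room temperature. Step 2, add rhodamine-CoA (5 uM) and BHQ-2-YbbR (12.5 uM). Step 3, read 525/598 nm fluorescence at 0 and 30 min.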
PINK1 modulator: A Quantitative High throughput Screen to Identify Chemical Modulators of PINK1 Expression; PINK1 immunofluorescence, high-content cytometry, 24 h; Potency, µM (highest dose often 76.6 µM), inactives show at the highest dose activation (PINK1 increase), actives largely listed as activators; 410,000 compounds, 0.2% hits; active = well fitted activation curve with a large enough effect; inconclusive = small, poorly fitted or top-dose-only effect; inactive = flat fitted curve, though single readings scatter; cell line not stated here;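 further: potency means the concentration at half of the fitted maximal effect; % of control where 0% means no effect; nearly all actives have a fitted effect of over 65% in size; a mitochondrial uncoupler was the plate control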
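Fluorescence from anti-PINK1 antibody, together with nuclear and cell stains, was scanned on a laser-scanning cytometer. Before staining, stable-line cells were incubated 24 hours with compounds at 5 concentrations; primary antibody 12 h at 10 degrees C.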
An asterisk follows results filed as active; ? = inconclusive; · = not tested or not shown; [ ] = dose if it differs, or a comment.

SMILES	Menin MLL FP FL	gsp agonist	D2 ag	ClpP mod	gsp antag	Sfp PPTase inh	PINK1 modulator
O=C(CCc1ccccc1)Nc1nccs1	6.5	8.7%	-5.6	-3.0%	-0.9%	3.5%	2.2%
CCCc1cc(=O)n2[nH]c(NC(=O)c3ccco3)nc2n1	6.8	3.7%[15.4 µM]	1.8	·	-19.5%	-8.4%	0.3%
COc1ccc(Cc2nnc(NC(=O)C(C)(C)C)s2)cc1	-2.3	7.0%[15.4 µM]	-6.3	·	13.2%	4.0%	-0.6%
Cc1cccc(C(=O)N[C@H](C(=O)Nc2ccc3c(c2)OCO3)C(C)C)c1	·	-3.7%	-1.0	·	-2.5%	·	3.1%
O=C(Nc1cccnc1)c1ccc2snnc2c1	-0.6	2.7%	2.1	-0.9%	1.7%	1.2%	-0.3%
O=C(CCN1CCC(c2ccc(Cl)s2)=N1)c1ccc(Cl)s1	?	?	-4.3	-1.9%	-5.1%	17.1%	?
COc1ccc(NC(=S)N2CCN(C/C=C/c3ccccc3)CC2)c(OC)c1	0.8	-6.0%[15.4 µM]	-2.3	·	4.8%	20.8%	-0.5%
CCOC(=O)c1c(-c2cccs2)csc1NC(=O)CN1CCOCC1	1.3	0.0%	-0.2	-8.4%	6.1%	-21.1%	2.5%
C=CCn1c(SCCC(=O)O)nc2c1c(=O)n(C)c(=O)n2C	3.6	12.8%	0.0	0.0%	1.2%	-1.6%	·
Nc1ncnc2c1C1(CCCCC1)Cc1ccccc1-2	-1.5	11.9%	-4.4	15.8µM*	-8.9%	13.7%	-3.3%
COc1ccc(S(=O)(=O)N2CCOC2CNC(=O)C(=O)NCC(C)C)cc1OC (centres undefined)	·	1.2%	-5.5	-3.4%	7.4%	10.1%	0.0%
CCOC(=O)c1ccc(S(=O)(=O)N2CCN(CC(O)COc3cccc(C(C)=O)c3)CC2)cc1 (centres undefined)	6.3	?	5.6	-1.1%	7.3%	-20.1%	0.6%
O=C(Nn1c(-c2ccncc2)nc2ccccc2c1=O)c1ccccc1Br	1.5	-33.1%[inhibitor]	3.1	·	3.5%	14.5%	0.2%
CCN(CC)S(=O)(=O)c1ccc(C(=O)Nc2cc(S(=O)(=O)N3CCOCC3)ccc2O)cc1	·	13.4%	-6.3	-1.2%	-14.6%	·	2.7%
CC(NC1CCN(Cc2ccccc2)CC1)c1ccc(F)cc1 (centres undefined)	-8.4	14.1%[15.4 µM]	2.8	0.0%	0.3%	7.6%	-1.7%
Cn1c(Cn2c(=O)sc3ccccc32)nnc1SCC(=O)N1CCOCC1	5.8	-37.6%[inhibitor]	-1.8	0.4%	5.2%	-7.2%	0.1%
O=C(CSc1nc2c(cnn2-c2ccccc2)c(=O)[nH]1)NCC1CCCO1 (centres undefined)	·	16.0%	-5.6	·	-6.8%	·	-1.9%
CN1C(=O)N2CN(C3CCCCC3)CN3C(=O)N(C)C1C23 (centres undefined)	1.2	-3.5%	-1.1	0.9%	3.1%	21.5%	5.6%[38.3 µM]
COCCN1CCN(c2cc(-c3ccccc3)nc3cc(-c4cccc(F)c4)nn23)CC1	2.0	-43.8%[inhibitor]	0.4	25.1µM*	-8.1%	?	-0.7%
Cc1ccccc1NC(=O)c1ccc(C)c(S(=O)(=O)N2CCN(C)CC2)c1	2.3	-23.5%	0.3	0.1%	-21.1%	5.6%	1.2%
CCCC(=O)NC(=S)Nc1c(C)cc(Br)cc1C	·	29.3%	-2.2	5.2%	-2.0%	·	13.7%
CC(=O)Nc1ccc(C(=O)CSc2nnnn2C2CCCC2)cc1	-3.2	21.9%	-1.7	-3.4%	3.4%	12.2%	-2.6%
O=C(NC1CCN(C(=O)Nc2ccc(F)cc2)CC1)c1cccc(F)c1	2.6	12.2%[15.4 µM]	-4.0	·	3.9%	20.9%	4.0%
CC(C)Cn1c(SC(C)C(=O)NC2CC2)nnc1-c1ccccc1F (centres undefined)	·	5.9%	-1.1	-0.9%	1.8%	·	2.5%
O=C(O)[C@H](Cc1ccccc1)NC(=O)N1CCN(c2ccccc2)CC1	5.2	-3.0%	-2.8	0.8%	7.2%	10.2%	1.7%
CC(C)C(=O)Nc1c(C(=O)c2ccc(F)cc2)oc2ccccc12	-1.7	-6.7%	-7.0	17.2%	4.3%	21.1%	4.0%
C/C(=N/NC(=O)c1cccc(N2CCCC2=O)c1)c1ccncc1	-7.7	1.8%	-3.4	·	6.0%	11.8%	0.0%
CC1(C)C(C=C(Cl)Cl)C1C(=O)N1CCN(Cc2ccccc2)CC1 (centres undefined)	-2.4	7.0%[15.4 µM]	?	·	-12.2%	19.3%	0.8%
CC(=O)Nc1cccc(NC(=O)CSc2nnc(Cc3cccn3C)n2-c2ccc(F)cc2)c1	1.6	17.6%	-2.8	7.8%	-0.7%	-23.2%	-4.6%[38.3 µM]
CCOc1ccc(CCNC(=O)CN2C(=O)NC3(CCCc4ccccc43)C2=O)cc1OCC (centres undefined)	·	23.6%[15.4 µM]	-2.6	·	3.1%	·	-0.4%
CSc1n[nH]c(NCc2ccc(C)cc2)n1	3.3	-11.0%	0.3	-2.0%	7.8%	14.9%	0.3%
Cc1onc(-c2ccccc2)c1C(=O)Nc1ccc(-c2nnc3n2CCCCC3)cc1	7.8	-2.9%	-0.7	-3.6%	-2.8%	13.9%	0.7%
Cc1ccc(C2CC(c3ccc(F)cc3)Nc3nc(N)nn32)cc1 (centres undefined)	1.0	-13.8%	-4.0	-2.8%	5.0%	-0.6%	-0.6%
COc1ccc(Cl)cc1NC(=O)CCN1C(=O)C2C3CCC(C3)C2C1=O (centres undefined)	-3.3	-0.1%	-0.7	·	-7.0%	14.6%	-1.8%
COc1ccc(C)cc1NC(=O)C(Sc1nnc(Nc2ccccc2F)s1)c1ccccc1 (centres undefined)	0.9	-2.3%[15.4 µM]	-0.2	-2.3%	-10.8%	12.2%	-0.7%
CCC1(C)NC(=O)N(/N=C/c2cc(OC)c(O)c(OC)c2)C1=O (centres undefined)	-0.7	-2.4%[15.4 µM]	-5.5	1.5%	1.5%	-6.3%	1.9%
O=C(NC(c1ccccc1)c1ccccc1)c1ccc(Br)o1	1.4	23.6%	-9.7	-2.7%	4.8%	15.5%	4.9%
Cc1cc(C)cc(NC(=S)NCCc2ccc(S(N)(=O)=O)cc2)c1	0.5	24.3%[15.4 µM]	-3.1	·	-5.6%	12.4%	0.1%
O=C(O)CCC(=O)N1CCc2cc(S(=O)(=O)NCc3cccs3)ccc21	1.6	-33.0%[inhibitor]	-0.3	-0.4%	7.8%	10.3%	0.7%[38.3 µM]
CCOc1ccc(C(C)=O)cc1COc1ccc(-n2cnnn2)cc1	2.2	0.0%	-1.5	1.2%	-5.3%	10.6%	0.7%
COc1ccccc1N1CCN(C(c2cccs2)C(C)NC(=O)c2cccs2)CC1 (centres undefined)	0.3	-60.7%[inhibitor]	-6.6	1.7%	-26.9%	-2.8%	-1.0%
COC(=O)c1ccc(COC(=O)CNS(=O)(=O)c2ccc(C)cc2)cc1	-0.3	?	1.9	·	-15.6%	-3.7%	-0.9%
O=C(CSc1ccc(Br)cc1)NCC(c1cccs1)N1CCOCC1 (centres undefined)	·	-0.9%[15.4 µM]	2.8	-9.4%	8.5%	·	-0.7%
CC(C)C(=O)Nc1cccc(COc2ccccc2CN(Cc2ccccc2)C(=O)OC(C)(C)C)c1	·	·	-0.6	-1.5%	-16.2%	·	0.7%
COc1ccc2[nH]cc(CCNS(=O)(=O)Cc3ccccc3)c2c1	1.4	12.3%[15.4 µM]	-2.1	·	8.1%	-10.7%	-0.6%
COc1ccc(CCNC(=O)c2oc3ccc(OC)cc3c2C)cc1	·	-28.2%	-4.9	-8.9%	-10.5%	9.7%	0.5%
CCN1CCN(Cc2c(O)ccc3c2O/C(=C\C=C\c2ccccc2OC)C3=O)CC1	?	-4.6%	-4.5	-1.3%	-9.5%	-2.9%	-0.6%
COc1cccc(C(=O)Nc2nc3ccc(S(C)(=O)=O)cc3s2)c1	0.0	2.4%[15.4 µM]	8.5	·	2.0%	8.8%	-0.2%
COc1ccc(N(CC(=O)NCc2cccs2)S(=O)(=O)c2c(C)nn(C)c2C)cc1	0.0	-1.6%	-4.0	-0.7%	6.2%	-4.6%	5.3%
O=C(COC(=O)c1c(F)cccc1Cl)NC1CCCC1	-2.4	1.2%[15.4 µM]	-1.5	·	3.1%	14.1%	-0.4%
COc1cc(OC)cc(-c2nnc(SCC(=O)N3CCOCC3)o2)c1	4.3	-23.3%	-2.9	0.1%	?	17.8%	2.9%
CCOC(=O)C1(Cc2ccccc2)CCCN(S(=O)(=O)N(C)C)C1 (centres undefined)	-0.4	-20.8%	-2.9	1.5%	4.0%	21.1%	0.9%
CCC(=O)N1CCNC(=O)C1CC(=O)Nc1ccc(C)c(Cl)c1 (centres undefined)	-0.5	-18.3%	2.4	-1.3%	-12.9%	13.2%	0.7%
CC1CCC(NC(=O)c2ccc(N3CCCC3=O)cc2)CC1 (centres undefined)	5.0	-23.8%	-3.5	-0.9%	7.9%	15.9%	7.3%[38.3 µM]
c1ccc2c3n(nc2c1)CCCO3	·	·	-0.4	-20.9%	4.5%	·	0.4%
